Compound activity from PubChem.
hNpr1 antagonist: blocks ANP-stimulated signaling of human Npr1 receptor. HEK293 hNpr1 GloSensor cGMP, ANP-stimulated luminescence. Potency, µM (highest dose often 46.3 µM), for inactives: top-dose activity change, negative = inhibition, actives largely listed as inhibitors. 76,000 compounds, 1.6% hits. AID 1347048; active = well fitted inhibition curve with a large enough effect; inconclusive = small, poorly fitted or top-dose-only effect; inactive = no such curve, though single readings can be large or run the other way;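 further: nearly all actives have a fitted effect of over 60% in size; nearly all hits also lower the signal before the agonist is added; a reference antagonist and vehicle were the controls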
Target sequence (P16066 whole entry, looked up): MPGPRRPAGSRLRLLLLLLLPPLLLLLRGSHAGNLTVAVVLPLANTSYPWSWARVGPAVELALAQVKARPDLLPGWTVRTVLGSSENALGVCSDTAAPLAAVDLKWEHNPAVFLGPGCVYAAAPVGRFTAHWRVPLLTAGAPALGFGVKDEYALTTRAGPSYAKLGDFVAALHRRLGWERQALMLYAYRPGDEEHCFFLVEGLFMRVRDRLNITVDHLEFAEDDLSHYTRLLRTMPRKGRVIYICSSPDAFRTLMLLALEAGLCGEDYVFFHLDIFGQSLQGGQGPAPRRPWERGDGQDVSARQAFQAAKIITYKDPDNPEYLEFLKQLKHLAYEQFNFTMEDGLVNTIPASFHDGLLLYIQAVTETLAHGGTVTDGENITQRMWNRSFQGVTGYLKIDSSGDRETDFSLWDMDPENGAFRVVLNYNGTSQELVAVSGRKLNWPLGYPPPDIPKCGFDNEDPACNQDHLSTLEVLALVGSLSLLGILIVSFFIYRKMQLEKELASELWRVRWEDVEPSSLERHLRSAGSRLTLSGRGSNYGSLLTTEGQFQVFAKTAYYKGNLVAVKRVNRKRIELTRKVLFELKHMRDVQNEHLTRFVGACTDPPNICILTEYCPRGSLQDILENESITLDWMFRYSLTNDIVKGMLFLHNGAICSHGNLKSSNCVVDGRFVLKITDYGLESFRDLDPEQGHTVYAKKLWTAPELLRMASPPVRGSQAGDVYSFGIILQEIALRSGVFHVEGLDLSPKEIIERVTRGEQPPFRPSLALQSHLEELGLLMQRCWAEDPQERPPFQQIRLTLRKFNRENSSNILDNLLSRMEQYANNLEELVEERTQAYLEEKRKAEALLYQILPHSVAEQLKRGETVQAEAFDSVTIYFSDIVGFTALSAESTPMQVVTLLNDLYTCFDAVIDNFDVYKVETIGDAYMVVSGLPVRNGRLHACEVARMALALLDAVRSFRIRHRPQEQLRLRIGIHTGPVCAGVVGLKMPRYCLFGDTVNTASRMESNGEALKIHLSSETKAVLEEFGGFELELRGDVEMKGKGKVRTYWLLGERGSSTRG
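Compound pre-incubated 30 min at room temperature on GloSensor-loaded HEK293 cells stably carrying hNpr1 and the pGS-40F cGMP biosensor. Stimulation uses hNppA at 0.1 nM final; luminescence is taken at baseline and 20 min post-agonist.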
An asterisk follows results filed as active; u = inconclusive; [ ] = another dose, or the depositor's remark. On the % scale 0 is the no-effect control and ±100 the full control effect; potency means the concentration at half of the fitted maximal effect. This is a subset. The share of hits here may be higher or lower than overall.

SMILES	hNpr1 antagonist
CN(Cc1cccnc1)c1nc2c(c(=O)[nH]1)CCN(Cc1ccc3cc[nH]c3c1)CC2	-1%
Cc1n[nH]c(C)c1C(N)C(=O)N1CC2(C)CN(C)CC(C)(C1)C2O (stereo unspecified)	-1%
CCC(=O)N1CCC(=O)N(CC)C2(CCOCC2)C1	1%
O=C(c1cccc(Cn2cccn2)c1)N1CCn2nc(C(=O)N3CCCC3)cc2C1	-2%
CC(C)n1cc2cc(C(=O)Nc3ccc4c(c3)OCCO4)sc2c1	u
Cc1cn2nc(C(=O)NCc3ccc(Cl)cc3)cc2c(=O)[nH]1	-13%
CC1CCC2(CC1)NC(=O)N(CC(=O)Nc1ccccc1C(C)C)C2=O (stereo unspecified)	0%
COc1ccc(CN2Cc3[nH]cnc3C[C@H]2c2nc(-c3ccc4ccccc4c3)no2)cc1	-20%
Cc1ncoc1C(=O)N1CCC2(CC1)CCC(O)(CN(C)C)CC2	0%
CNC(=O)N1CCC(C2CCN(C(=O)c3ccc(OC)c(F)c3)C2)CC1 (stereo unspecified)	1%
O=C(NCc1ccco1)C1CC(c2ccccc2)CN(C(=O)Nc2ccc(Cl)cc2)C1 (stereo unspecified)	-3%
Cc1cnn(CCC(=O)N2CCC(Oc3ccccc3)(C(=O)O)CC2)c1	7%
CN(C)CCNC(=O)c1nc2nc(-c3ccccc3)c(-c3cccc(F)c3)cc2n1C	-24%[70.6 µM]
O=C(Nc1ccc(F)c(Cl)c1)C1CCc2sc(C(=O)N3CCOCC3)cc2C1 (stereo unspecified)	8.9µM*
CC1(C)[C@H](Cc2cc(CCO)on2)C[C@@H]1NCc1cccnc1	-1%[70.6 µM]
COc1ccc(C(=O)N[C@@H]2CCC[C@@H]2C(=O)NCCC2=CCCCC2)cn1	-2%
COc1cccc(NC(=O)NC[C@@H]2C=C(C)[C@H](CC(=O)N3CCN(c4ccccn4)CC3)C[C@H]2C(C)C)c1	-23%
Cc1ccc(Cl)cc1NC(=O)N1CC(C(=O)N(C)C)C2(CCOCC2)C1 (stereo unspecified)	0%
COCc1nc(C2CCN(C(=O)C3CCCCC3)C2)no1 (stereo unspecified)	2%
CN1Cc2nc(Nc3ccccc3F)ccc2OCC1=O	-13%[70.6 µM]
COCCn1ncc(N2CCC(NC(=O)c3cc(C)cc(C)c3)CC2)cc1=O	4%
COc1ccc(C(=O)N2CCCC(c3nccn3CC3CCC3)C2)c(OC)n1 (stereo unspecified)	1%
COc1ccc(-c2nc3cc(C)ccc3cc2CN2CCN(C)C(=O)C2)cc1OC	4%
CCOc1cc(=O)n2c(c1C(=O)Nc1cccc(C(F)(F)F)c1)CCCC2	-8%
CCn1cc(CN2CCC([C@@H]3CNC[C@H]3CO)CC2)c2cc(OC)ccc21	0%

Next entries follow:
SMILES	hNpr1 antagonist
CNC(=O)[C@@H]1CN(C(=O)c2cccc(C#N)c2)C[C@H]1COC	1%
CCOc1ccccc1CN1CCC(N2CCCC(C(=O)NC3CC3)C2)CC1 (stereo unspecified)	1%
Cn1ccc2cc(-c3ccc4c(n3)c(=O)ncn4CC3CC3)ccc21	-11%[70.6 µM]
CC(C)(C)CC(=O)N1CCCC(C(=O)Nc2cccc(-c3ccc(F)cc3)c2)C1 (stereo unspecified)	-11%
COc1ccc(Cc2nc3ccc(C(=O)NCCN4CCOCC4)cc3o2)cc1	0%
CCOc1cc(-c2nc(C3CC(=O)N(c4ccc(F)cc4)C3)no2)cc(OCC)c1OCC (stereo unspecified)	6%
CSCC(=O)N1C[C@@H](NC(=O)Nc2ccc(F)cc2F)C[C@H]1C(=O)N[C@H](Cc1c[nH]c2ccccc12)C(N)=O	-5%
CN(Cc1ccc(-c2ccccc2)cc1)Cc1cccn1C	3%[70.6 µM]
COCCN1CCC2(CCC1=O)CCN(C(=O)Nc1ccc(Br)cc1)CC2	-6%
O=C([C@@H]1CNC[C@H](C(=O)N2CCc3ncccc3C2)C1)N1CCCC1	2%
CCn1nc(C)c(-c2cc(C(=O)N3CCC(CCOc4ccccc4OC)C3)no2)c1C (stereo unspecified)	-6%
NCCn1cc(C(=O)N(Cc2ccccn2)CC2CCCO2)nn1 (stereo unspecified)	0%
NC(=O)[C@H](CC1CCCCC1)NC(=O)[C@H]1CNCCN1C(=O)NC1CCCCC1	-2%[70.6 µM]
O=C(NC1CCCN(c2nc3ncccc3o2)C1)c1ccc(Cl)nc1 (stereo unspecified)	-4%
Cc1ccc(C(=O)NC2CC(c3nnc(CN(C)C)n3C)C2)s1 (stereo unspecified)	4%
CS(=O)(=O)c1ccc(CN[C@@H]2CO[C@H](CNC(=O)Nc3ccccc3)[C@H]2O)cc1	9%[70.6 µM]
O=C(Cn1nc2c(cc1=O)CCCC2)Nc1nnc(C2CCC2)s1	2%
CNC(=O)[C@H]1C[C@H](Oc2cccnc2)CN1S(=O)(=O)c1cccc(OC)c1	6%
COc1cncc(Nc2ncc(-c3ccccc3OC)c3c2OCC3)c1	-4%[70.6 µM]
COc1ccc(-c2onc(C)c2C(=O)N[C@@H](C)c2ccc(OC)cc2)cc1	0%
CCCC1(CO)CCCN(Cc2cn3ccc(C)cc3n2)C1 (stereo unspecified)	11%
O=C(Cc1c[nH]c2ncc(-c3ccccc3)cc12)N1CCCC1	u
COc1ccc(Nc2nc(-c3ccccc3F)no2)cc1OC	u
O=C(NCCc1ccccc1)N1CCC(c2noc(-c3cnccn3)n2)C1 (stereo unspecified)	5%
CC(C)CNC(=O)c1ccc2c(c1)C1(CCCN(CC3CC3)C1)CN2C (stereo unspecified)	2%[70.6 µM]

Among those listed so far, these have sulfur.
SMILES	hNpr1 antagonist
CC(C)n1cc2cc(C(=O)Nc3ccc4c(c3)OCCO4)sc2c1	u
O=C(Nc1ccc(F)c(Cl)c1)C1CCc2sc(C(=O)N3CCOCC3)cc2C1 (stereo unspecified)	8.9µM*
CSCC(=O)N1C[C@@H](NC(=O)Nc2ccc(F)cc2F)C[C@H]1C(=O)N[C@H](Cc1c[nH]c2ccccc12)C(N)=O	-5%
Cc1ccc(C(=O)NC2CC(c3nnc(CN(C)C)n3C)C2)s1 (stereo unspecified)	4%
CS(=O)(=O)c1ccc(CN[C@@H]2CO[C@H](CNC(=O)Nc3ccccc3)[C@H]2O)cc1	9%[70.6 µM]
O=C(Cn1nc2c(cc1=O)CCCC2)Nc1nnc(C2CCC2)s1	2%
CNC(=O)[C@H]1C[C@H](Oc2cccnc2)CN1S(=O)(=O)c1cccc(OC)c1	6%

Additional structures:
SMILES	hNpr1 antagonist
CN(Cc1cccnc1)c1nc2c(c(=O)[nH]1)CCN(Cc1ccc(C#N)cc1)CC2	-1%
CC(C)=CCC1(CO)CCCN(c2ccnc(N)n2)C1 (stereo unspecified)	-4%
O=C1CCN(C(=O)C2CCN(C(=O)C3CCCC3)CC2)CCCCCCN1	-2%
COc1ccc(NC(=O)[C@@H]2C[C@@H](c3cccc(C(F)(F)F)c3)N(Cc3cnn(C)c3)C2)cn1	2%
COc1ccc(C(=O)N2CCCN(c3cc(-c4ccc(C)c(C)c4)[nH]n3)CC2)c(OC)n1	-24%
CS(=O)(=O)N1CCC(C2CCN(C(=O)NCCc3ccccc3)C2)CC1 (stereo unspecified)	7%
CN1CCC(Nc2nccc(C3(c4ccccc4Cl)CCNCC3)n2)CC1	4%
N#Cc1cccc(C(=O)N2CCC3(CC2)CC(CO)N(C(=O)c2ccccc2)C3)c1 (stereo unspecified)	9%
CC1=C[C@@H](CNC2CCOCC2)[C@H](C(C)C)C[C@H]1Cc1nc2ccc(Cl)cc2[nH]1	-4%[70.6 µM]
COCCn1cc2c3c(cccc31)CN(C(=O)CCc1ccccc1OC)CC2	-9%
CCCCN1C(=O)[C@@H]2C[C@@H](O)CN2C2(CN(Cc3ccc(F)cc3)C2)C1=O	6%[70.6 µM]
COCCc1nncn1C1CCN(C(=O)c2cc(C)cc(C)c2)CC1	0%
CCc1nc(C)ccc1OCC(=O)NCC1COc2cc(OC)ccc2C1 (stereo unspecified)	5%
Cc1ccccc1Cc1c(C)nc2c(C(=O)N3CCC(Cc4nncn4CC4CC4)CC3)cnn2c1C	2%
Cc1ccc(C(=O)N2CCC(n3cc(-c4nc(-c5ccccc5)no4)nn3)CC2)s1	u
Cc1noc(C)c1CC(=O)NC1CCc2nn(CC3CC3)c(=O)n2CC1 (stereo unspecified)	3%
CCc1ccccc1-n1nc(-c2c(C)nc3scc(CC(=O)NCC(C)C)n3c2=O)cc1C	9%
O=C1Nc2ccc(-c3cccc(C(F)(F)F)c3)cc2C(=O)N2CCN(C(=O)C3CCCC3)C[C@@H]12	-3%
Cc1sc2ccn(C)c(=O)c2c1C(=O)N1CCN(c2ccc(F)cc2)CC1	-8%
C[C@H](O)c1c(-c2ccc(F)cc2)noc1C(=O)N1CCCC1	-3%[70.6 µM]
O=S(=O)(Cc1ccccc1)N[C@H]1CO[C@H]2[C@@H]1OC[C@@H]2n1nnnc1Oc1ccc(-n2ccnc2)cc1	4%
CCOC(=O)C(C)N1CCOc2c(O)cc(-c3cccc(Cl)c3)cc2C1 (stereo unspecified)	u
CCC(CC)Nc1ncnc2c1CN(C1CCC1)C(=O)CN2C	-15%[70.6 µM]
O=C(N[C@H]1C[C@@H](CO)N(CC2CCCCC2)C1)c1cccnc1	-8%
COc1ccc(CCC(=O)N2CCC[C@H]2c2nc(-c3ccccc3)no2)cc1	-24%

(list continues)
SMILES	hNpr1 antagonist
O=C(NCCc1noc(C2CC2)n1)c1ccoc1	8%
CCN1CC(CNc2nccc(-c3c(C)nn(C)c3C)n2)CC1=O (stereo unspecified)	0%
N#Cc1ccc(CN2CCc3n[nH]c(=O)n3CC2)cc1	-9%
CSc1ccc(NC(=O)C2CCN(C(=O)c3nnn4c3COC(c3ccc(C)cc3)C4)CC2)cc1 (stereo unspecified)	1%
COc1ccc(-c2cc(N3CCCC(NC(=O)c4ccc(C)cc4C)C3)n[nH]2)cc1 (stereo unspecified)	-16%
CC(=O)N1CCC(C2CCN(Cc3cccc(C)c3)C2)CC1 (stereo unspecified)	-6%
CC(C)CN(Cc1cccnc1)C1CN(C(=O)Nc2ccccc2F)C1	6%
CCN(CC)C(=O)CC[C@@H]1CNC(=O)[C@@H]2C[C@H](NCc3ccc(N(C)C)cc3)CN12	0%[70.6 µM]
CCOc1ccccc1NC(=O)N1CCC2(CC1)CC(Cc1nc(-c3ccncc3)no1)CCO2 (stereo unspecified)	-25%
Cn1nc(C(=O)N2CCC3(CC2)N=C(c2cccc(Br)c2)NO3)c2ccccc21	-15%
CCOc1ccccc1NC(=O)C1CCc2ncc(-c3ccsc3)n2C1 (stereo unspecified)	-17%
C1CCC(c2nc(CCOCC3CC3)no2)NC1 (stereo unspecified)	0%
Cc1cc(C(=O)N[C@@H]2CN(Cc3ccccc3)C[C@H]2CO)nn1C	0%
Cc1ccc(C)c(NC(=O)Cn2c(-c3ccc(F)cc3)nc(C)c(CCO)c2=O)c1	-2%
Cc1cc(C(=O)N2CCCC3(CCNCC3)CC2)c2cnn(C(C)C)c2n1	1%
CNC(=O)[C@H]1C[C@H](Oc2ccccc2)CN1Cc1cccc(F)c1	-16%
CCOC(=O)C1=C(C)N=C2SC=C(CC(=O)N3CCC(C)CC3)N2C1c1cccc(OC)c1 (stereo unspecified)	-17%
COc1ccc(-n2c(=O)c3c(n2Cc2ccccc2)CN(CC2CCOC2)CC3)cc1 (stereo unspecified)	-9%[70.6 µM]
Clc1cc(NCC2CC2)n2nccc2n1	0%[70.6 µM]
CNC(=O)N1CCC(Cc2noc(C3CCOCC3)n2)C1 (stereo unspecified)	-6%
Cn1ncc(CN2CCCC23CCN(c2ccc(C(F)(F)F)cn2)CC3)c1C1CC1	4%
COc1ccc(C(=O)N2C[C@@H]3OCC(=O)N(Cc4ccccc4)[C@@H]3C2)cc1	-23%[70.6 µM]
Cc1ccc(Cc2ccccc2C(=O)N2CCOC(C(F)(F)F)C2)cc1 (stereo unspecified)	-11%
CC(C)(C)CC(=O)N1CCN2C(=O)c3cc(-c4cccc(C(F)(F)F)c4)ccc3NC(=O)[C@H]2C1	10%
COC1C(=O)N(C2CCN(C(=O)Cc3cccc(F)c3)CC2)C12CCOCC2 (stereo unspecified)	4%

Some of the entries above in another layout.
| compound | hNpr1 antagonist |
| --- | --- |
| Cc1ccc(Cc2ccccc2C(=O)N2CCOC(C(F)(F)F)C2)cc1 (stereo unspecified) | -11% |
| CCOC(=O)C1=C(C)N=C2SC=C(CC(=O)N3CCC(C)CC3)N2C1c1cccc(OC)c1 (stereo unspecified) | -17% |
| Cn1ncc(CN2CCCC23CCN(c2ccc(C(F)(F)F)cn2)CC3)c1C1CC1 | 4% |
| CNC(=O)N1CCC(Cc2noc(C3CCOCC3)n2)C1 (stereo unspecified) | -6% |

(more compounds)
SMILES	hNpr1 antagonist
Cc1ccc(NC(=O)c2ccc(Cn3ccn4nc5c(c4c3=O)CCCC5)cc2)cc1	-17%
Cc1ccccc1CC(=O)N1CCC(Oc2ncccc2C(=O)N2CCCCC2)C1 (stereo unspecified)	-3%
O=C(Cn1nc2c(cc1=O)CCCCC2)Nc1cc(F)c(F)c(F)c1	2%
CCN(C)c1ccnc(N2CC[C@@H]3C[C@H](N4CCOCC4)CC[C@@]3(COC)C2)n1	-1%
COc1ccc(OCc2nc(C)c(CCO)c(=O)n2CC(=O)Nc2ccccc2Cl)cc1	2%
COc1ccc(NC(=O)N2C[C@@H]3C[C@H](C2)c2c(NS(=O)(=O)c4ccccc4)ccc(=O)n2C3)cc1	-2%
CS(=O)(=O)c1ccc(CN2CCC(C(O)c3ccccn3)CC2)cc1 (stereo unspecified)	2%
COC[C@H]1C[C@@H](NS(=O)(=O)c2cccc(C(F)(F)F)c2)[C@H](O)[C@@H]1O	1%[70.6 µM]
